VDR inh – Inhibitors of the vitamin D receptor (VDR): qHTS. Vitamin D3 receptor (Homo sapiens), P11473. VDR-SRC2-3 peptide fluorescence polarization, 2 h. Potency, µM, inactives show max response, negative = inhibition, usual class: inhibitors. 0.93% of 400,000 active; active = well fitted inhibition curve with a large enough effect; inconclusive = small, poorly fitted or top-dose-only effect, or another doubt; inactive = no such curve, though single readings can be large or run the other way; note: series mostly up to about 120 µM
Target sequence (P11473 whole entry, looked up): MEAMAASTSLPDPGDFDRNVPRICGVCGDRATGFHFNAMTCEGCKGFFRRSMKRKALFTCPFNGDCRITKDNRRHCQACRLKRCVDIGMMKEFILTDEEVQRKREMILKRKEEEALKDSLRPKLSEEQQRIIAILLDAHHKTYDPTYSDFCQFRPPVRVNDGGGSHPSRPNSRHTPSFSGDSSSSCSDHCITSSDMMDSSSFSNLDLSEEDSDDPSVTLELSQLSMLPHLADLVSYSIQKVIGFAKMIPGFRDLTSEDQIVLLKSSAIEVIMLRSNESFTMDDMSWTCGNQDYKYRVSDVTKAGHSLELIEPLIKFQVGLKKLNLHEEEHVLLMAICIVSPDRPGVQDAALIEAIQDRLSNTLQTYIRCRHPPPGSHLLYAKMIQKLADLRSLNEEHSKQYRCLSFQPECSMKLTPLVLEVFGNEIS
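VDR–SRC2-3 interaction, FP format. Cmpds 23 nl via pintool, brief spin, 2 h ambient incubation.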
Active calls of the source: *; ? = inconclusive. % is set by controls: 0 for no effect and ±100 for the full control effect; potency is the fitted concentration of half-maximal effect. The list is partial, so the mix of outcomes need not match the whole.

No.	compound	VDR inh
1	CCc1cc2c(cc3c(=O)n(CC(=O)NC(C)c4ccccc4)ncn32)s1 (stereo not given)	25%
2	CC(=O)c1ccc(NC(=O)CC2Oc3ccc(C)cc3NC2=O)cc1 (stereo not given)	4%
3	Cc1ccc(-n2c(SCC(=O)Nc3c(C)cccc3C)nc(O)c(C)c2=O)cc1	-17%
4	Cc1oc2cc(O)ccc2c(=O)c1-c1nncn1-c1ccccc1	8%
5	CC(C)NC(=O)C1CCN(C2CCN(CC3CC=CCC3)CC2)CC1 (stereo not given)	-2%
6	C=C1CC(C)OC(c2ccccc2OCC(O)CN2CCCCC2)C1 (stereo not given)	10%
7	CC(Sc1nncn1C)C(=O)Nc1ccccc1-c1ccccc1 (stereo not given)	21%
8	Cn1c(=O)[nH]c(=O)c2c1[nH]c(=S)n2Cc1ccc(Cl)cc1	?
9	COc1ccc(NS(=O)(=O)c2cccc(C(=O)NNC(=O)c3cc(C)oc3C)c2)cc1	-1%
10	CCOC(=O)c1cc(C(C)=O)n2ccccc12	12%
11	O=C(COc1ccc2c3c(c(=O)oc2c1)CCC3)N1CCN(c2ccccc2)CC1	19%
12	COc1ccc(-n2c(SCC(=O)Nc3ccccc3)nnc2-c2ccoc2C)cc1	6%
13	CCC(C)C(=O)Nc1nnc(SCC(=O)N2C(C)CCCC2C)s1 (stereo not given)	-11%
14	OCCN(CCO)c1ncnc2c1oc1ccc(Br)cc12	7%
15	C=CCn1c(C)cc(C(=O)CSc2nc3ccccc3c(=O)[nH]2)c1C	-13%
16	CC(C)(C)S(=O)N1Cc2cc(=O)n(Cc3ccccc3)cc2[C@@H]1CCO (stereo not given in full)	?
17	CC(C)OP(=O)(OC(C)C)C(NC(=O)c1cccc([N+](=O)[O-])c1)C(N)=O (stereo not given)	-1%
18	Cc1cccc(NC(=O)C2COc3ccccc3O2)n1 (stereo not given)	-4%
19	COc1cc(-c2noc(C)c2-c2ccc3[nH]ccc3c2)cc(OC)c1OC	?
20	CCOC(=O)c1ccc(NC(=O)c2cc(S(=O)(=O)N3CCOCC3)ccc2O)cc1	14%
21	Cc1c(NC(=O)c2ccc3c(c2)OCO3)cccc1-c1nc2ncccc2o1	-1%
22	COc1ccc(-n2ncc3c(N4CCC(C)CC4)ncnc32)cc1	-11%
23	Cc1cc(=O)oc2cc(OC(C)C(=O)Nc3ccc(N4CCCCC4)cc3)ccc12 (stereo not given)	-25%
24	O=C(Nc1ccccc1)N1CC[C@@]2(CCCN(C(=O)c3cc(C(F)(F)F)cc(C(F)(F)F)c3)C2)C1	-25%
25	CCCN1Cc2cccc(C(=O)Nc3ccc(S(=O)(=O)N4CCCCCC4)cc3)c2C1=O	-9%
26	COc1ccc(CCNC(=O)c2c(O)c3ccccc3[nH]c2=O)cc1OC	-17%
27	Cc1ccc(S(=O)(=O)N2CC(C)N(C(=O)N3CCOCC3)C2C)cc1 (stereo not given)	9%
28	NC(=O)NCC1CC1	-6%
29	COc1ccc(CCN2C(=O)CC(NNC(=O)c3ccc(F)cc3)C2=O)cc1OC (stereo not given)	-4%
30	O=C(NNC(=O)c1cc(-c2ccccc2)nc2ccccc12)c1csc(N2CCOCC2)n1	-20%
31	Cc1ccnc2nc(C(=O)OCC(=O)c3ccc(NC(=O)CC(C)C)cc3)nn12	17%
32	O=C(Nc1ccccc1)c1cnc(-c2ccccc2)nc1-c1ccccc1	-6%
33	CCN(CC)CCCNC(=O)C1CCN(S(=O)(=O)CC)CC1	4%
34	C/C(=N\Nc1ccc([N+](=O)[O-])cc1)c1cccc(N)c1	-8%
35	CC(=O)N1N=C(c2cccc([N+](=O)[O-])c2)OC1c1ccc(Cl)cc1Cl (stereo not given)	10%
36	CCc1cccc(NC(=O)C2CCN(S(=O)(=O)c3ccc4[nH]c(=O)ccc4c3)CC2)c1	-13%
37	O=C(Nc1nc(-c2cc(F)ccc2F)cs1)c1ccccn1	-6%
38	O=C1c2ccc(Cl)cc2S(=O)(=O)c2cccc(C(=O)N3CCN(c4ncc(Br)cn4)CC3)c21	0%
39	CN(C)c1ccc(/C=N/NC(=O)CCCCCNC(=O)c2ccccc2)cc1	5%
40	CC1CCN(Cc2c(C(=O)N/N=C/c3cc(Cl)ccc3O)nnn2-c2nonc2N)CC1	5%
41	CCCS(=O)(=O)N1CCCC(C(=O)NCCCN2CCN(c3ccccc3F)CC2)C1 (stereo not given)	5%
42	CC(C)Cn1cnc2c(SCCc3ccccc3)nc(N)nc21	21%
43	COc1ccc(CCN(C(=O)c2ccco2)C(C(=O)NC2CCCC2)c2ccncc2)cc1OC (stereo not given)	-16%
44	Cc1cc(C(=O)c2ccccc2)c(NC(=O)CN2CCOCC2)s1	-5%
45	CCCCN1CCNC[C@@H]1c1ccccc1	1%

From no. 32 up to 36, copied from above:
No.	compound	VDR inh
32	O=C(Nc1ccccc1)c1cnc(-c2ccccc2)nc1-c1ccccc1	-6%
33	CCN(CC)CCCNC(=O)C1CCN(S(=O)(=O)CC)CC1	4%
34	C/C(=N\Nc1ccc([N+](=O)[O-])cc1)c1cccc(N)c1	-8%
35	CC(=O)N1N=C(c2cccc([N+](=O)[O-])c2)OC1c1ccc(Cl)cc1Cl (stereo not given)	10%
36	CCc1cccc(NC(=O)C2CCN(S(=O)(=O)c3ccc4[nH]c(=O)ccc4c3)CC2)c1	-13%

Remaining list, next part
No.	compound	VDR inh
46	COc1ccc(CNC(=O)c2cc3c(=O)n4ccccc4nc3n(CC3CCCO3)c2=N)cc1 (stereo not given)	2%
47	COc1ccccc1NC(=S)N1CCC(c2nc3cc(C)c(C)cc3[nH]2)CC1	4%
48	COC(=O)C1CCN(C(c2cc(OC)c(OC)c(OC)c2)c2sc3nc(C)nn3c2O)CC1 (stereo not given)	-7%
49	Cc1ccc(Nc2c(-c3ccc(N4CCOCC4)cc3)nc3c(C)cccn23)cc1	-10%
50	COc1cc(NC(=S)NCc2ccco2)c(OC)cc1Cl	9%
51	COc1ccc(NC(=O)COc2cccc(-n3cnnn3)c2)cc1	2%
52	COc1ccccc1CNc1cncnc1	-16%
53	COCCN(C)Cc1cn(-c2ccc(F)cc2F)nc1-c1ccccc1C	10%
54	CCn1c(SCC(=O)Nc2nc3ccccc3s2)nc2c(c1=O)SC(C)C2 (stereo not given)	-5%
55	CNC[C@@H]1Oc2ccc(NC(=O)Nc3ccccc3)cc2C(=O)N([C@@H](C)CO)C[C@H]1C	-1%
56	O=C(O)c1ccccc1C(=O)NCCc1c(C(=O)O)[nH]c2ccc(F)cc12	-11%
57	COc1ccc(/C=C2\C(=O)NCC(=O)N2C)cc1	8%
58	COC(=O)c1cc(C(=O)OC)cc(N2C(=O)CC(N3CCN(c4ccccc4)CC3)C2=O)c1 (stereo not given)	5%
59	CSc1ncc(Cl)c(C(=O)Nc2ccccc2C)n1	-8%
60	O=C(N/N=C/c1ccc(OC(=O)c2ccc3c(c2)OCO3)cc1)c1cncc(Br)c1	5%
61	C/C(=N/NC(=O)c1ccc(Br)o1)C(C)C	-11%
62	CC1=CC2=NC(=O)CC(C)(C(=O)N(CC(=O)NC3CCCC3)c3ccccc3F)N2C=C1 (stereo not given)	-12%
63	COc1cccc2c1C(=O)c1c(O)c3c(c(O)c1C2=O)C[C@@](O)(C(=O)CO)C[C@@H]3OC1CC(N)C(O)C(C)O1 (stereo not given in full)	?
64	O=C(CN1C(=O)/C(=C2\SC(=S)N(CCS(=O)(=O)O)C2=O)c2ccccc21)Nc1cccc(Br)c1	?
65	Cn1cc(CNC(=O)C2CCC(=O)N(Cc3ccc(Cl)cc3)C2)cn1 (stereo not given)	19%
66	C=CCOc1ccccc1CNCCc1ccc(S(N)(=O)=O)cc1	12%
67	CC(=O)c1ccc(N(C(=O)Cc2c[nH]c3ccccc23)C(C(=O)NC2CCCCC2)c2cccs2)cc1 (stereo not given)	3%
68	Cc1ccccc1N(CC(=O)NC1CCCCC1)C(=O)CCC(=O)Nc1nccs1	-7%
69	CC(=O)N1CCCc2cc(S(=O)(=O)N3CCC(C(=O)NCc4ccccc4)CC3)ccc21	10%
70	COC1CCN(C(=O)C2CCC(=O)N(CCc3cccc(F)c3)C2)CC1 (stereo not given)	-2%
71	O=C(NCc1ccco1)C(c1ccccc1F)N(CC1CCCO1)C(=O)Cn1nnc2ccccc21 (stereo not given)	-12%
72	CN(C)c1ccc(-c2nccc(NCc3cccs3)n2)cc1	-20%
73	CC(=O)/C=C1\C(=O)N(C)c2ccccc21	25µM*
74	CC1(C)CNC(=O)c2sc(NC(=O)c3ccccc3Cl)nc2C1	11%
75	CCOc1ccc(OCCCCN(C)C)cc1	-3%

Shown with the structure last: entries from further up
| nr | VDR inh | SMILES |
| --- | --- | --- |
| 13 | -11% | CCC(C)C(=O)Nc1nnc(SCC(=O)N2C(C)CCCC2C)s1 (stereo not given) |
| 48 | -7% | COC(=O)C1CCN(C(c2cc(OC)c(OC)c(OC)c2)c2sc3nc(C)nn3c2O)CC1 (stereo not given) |
| 62 | -12% | CC1=CC2=NC(=O)CC(C)(C(=O)N(CC(=O)NC3CCCC3)c3ccccc3F)N2C=C1 (stereo not given) |
| 61 | -11% | C/C(=N/NC(=O)c1ccc(Br)o1)C(C)C |
| 67 | 3% | CC(=O)c1ccc(N(C(=O)Cc2c[nH]c3ccccc23)C(C(=O)NC2CCCCC2)c2cccs2)cc1 (stereo not given) |

Next section:
No.	compound	VDR inh
76	O=C(C1CC(c2cccc(Br)c2)=NO1)N1CCc2ccccc2C1 (stereo not given)	-4%
77	CS(=O)(=O)Nc1cccc(-c2ccc3ncnc(NC4CC4)c3c2)c1	?
78	COc1ccc(NC(=O)Cn2cnc3sc(C)c(S(=O)(=O)N4CCOCC4)c3c2=O)cc1Cl	8%
79	CCOc1ccc(C(=O)Nc2ccc3oc(-c4cccnc4)nc3c2)cc1	-1%
80	CCOc1ccc(NS(=O)(=O)c2cc(NC(=O)c3ccc(C)cc3)ccc2Cl)cc1	-1%
81	CCC(C)(C)NC(=O)CN(C(=O)C(=O)Nc1ccc2c(c1)OCCO2)N1CCOCC1	-5%
82	O=C(NCC(=O)N1CCCCCCC1)c1ccco1	2%
83	O=C(CN(Cc1ccco1)C(=O)c1cc(=O)[nH]c2ccccc12)Nc1ccccc1C(F)(F)F	-8%
84	CCc1cccc(NC(=O)c2c(N3CCCC3=O)c3cc(C)ccc3n2C)c1	5%
85	Cc1ccc(C(=O)c2cc([N+](=O)[O-])ccc2N2CCN(C)CC2)cc1	12%
86	N#C/C(=C\C=C\c1ccccc1)C(=O)NCc1ccco1	-17%
87	O=C(NCCc1ccccc1)C1CCCN1C(=O)Nc1cccc(Cl)c1 (stereo not given)	-7%
88	Cc1ccc2c(c1)C(c1ccncc1)=NNC(c1cccnc1)=N2	0%
89	Cc1ccc(C(=O)OCc2cc(=O)n3ccsc3n2)s1	-3%
90	CC(=O)c1ccc(Oc2cc(-c3ccccc3)nc(-c3ccccc3)n2)cc1	10%
91	Cc1cccc(C(=O)Nc2ccc(C(=O)OCc3cc(=O)n4c5c(sc4n3)CCCC5)cc2)c1	-3%
92	CC/C=C(/NC(C)=O)c1ccccc1	-11%
93	COc1ccc(CNC(=O)c2n[nH]c3ccccc23)cc1OC	-1%
94	CC(NC(=O)C(C)N1CCN(S(=O)(=O)c2ccccc2)CC1)c1ccccc1 (stereo not given)	12%
95	CC1Cc2ccccc2N1CC(=O)NC(=O)NCc1ccco1 (stereo not given)	16%
96	Cc1[nH]cnc1CSCc1ccc(Cl)cc1	-19%
97	CSc1ncccc1C(=O)Nc1cccc(C)n1	6%
98	CCc1ccc(NC(=O)c2ccc3c(=O)n4nc(Nc5ccccc5C)sc4nc3c2)cc1	10%
99	Cc1cc(C)cc(OCC(=O)Nc2ccc(N3CCCC3)cc2)c1	2%
100	O=C(NCC1OCCc2ccccc21)C1COc2ccccc2O1 (stereo not given)	2%
101	CCOC(=O)C(=O)Nc1nnc(SCc2ccc(F)cc2)s1	4%
102	CON(c1nc(N(C)C)nc(N(C)C)n1)S(=O)(=O)c1ccccc1Cl	14%
103	COCCN1C(=O)C(O)=C(C(C)=O)C1c1ccc(OC)c(OC)c1 (stereo not given)	17%
104	O=C(CCC(=O)NC1CCCCC1)NCc1ccc(F)cc1	-8%
105	COCC(=O)N1CCC(Oc2ccc(C(=O)N(C)Cc3nccs3)cc2)CC1	-5%
106	CN(Cc1cn(C)nc1-c1ccc(Oc2ccccc2)cc1)CC1COCCO1 (stereo not given)	-12%
107	CS(=O)(=O)N(CC(=O)NCCSCc1c(F)cccc1Cl)c1cccc([N+](=O)[O-])c1	0%
108	O=C(c1ccc(F)cc1)C1CCN(C(=S)Nc2ccccc2Cl)CC1	-3%
109	Cc1ccc(C(C)C)c(OCc2nn(CC(=O)c3ccc(OC(F)F)cc3)c3[n+]2CCCCC3)c1	10%
110	CC(C)N(CCNC(=O)C1CCN(S(=O)(=O)N2CCOCC2)CC1)Cc1ccccc1	10%
111	c1ccc2sc(N3CN(CCN4CCOCC4)CN(c4nc5ccccc5s4)C3)nc2c1	?
112	Cc1ccc(S(=O)(=O)N2CCCC2CNC(=O)C(=O)Nc2ccc(F)cc2)cc1 (stereo not given)	5%
113	Nc1nc(N2CCOCC2)cc(=O)[nH]1	-11%
114	COc1cc2oc3ccc(C#Cc4ccc(N)cc4)cc3c(=O)c2cc1OC	-4%
115	Cc1ccc(C(=O)NCCc2cc3ccc(C)c(C)c3[nH]c2=O)cc1[N+](=O)[O-]	5%
116	CCOc1ccc(S(=O)(=O)N2CCC(C(=O)N3CCc4ccccc4C3)CC2)cc1	-17%
117	O=C(NCCCn1ccnc1)C(=O)NCC(c1ccco1)N1CCN(c2ccc(F)cc2)CC1 (stereo not given)	-16%
118	O=C(Nc1ccccc1N1CCOCC1)c1ccc(Cl)nc1	7%
119	COc1ccc(OCCSc2ncn[nH]2)cc1	8%
120	CC(C)Cc1nc(SCC(=O)N2CC(C)OC(C)C2)c2c(=O)n(C)c(=O)n(C)c2n1 (stereo not given)	-11%
121	O=C(COC(=O)/C=C/c1ccccc1)NCC1CCCO1 (stereo not given)	19%
122	COc1ccc(CNC(=O)CCCCCn2c(SCC#N)nc3cc4c(cc3c2=O)OCO4)cc1	1%

Screens (PubChem BioAssay)
